NPYLR7 agonist = agonists of mosquito NPYLR7 receptor, primary screen, cell-based, Aedes aegypti, calcium fluorescence, mosquito biting behavior; Aedes aegypti neuropeptide Y-like receptor 7 (NPYLR7); HEK293T NPYLR7/Galpha15, GCaMP6s calcium fluorescence; activation, % at 10 µM; 0.15% of 270,000 active; AID 1259423, 2018; in the data active = activation above about 40%;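 note: 0% = vehicle and 100% = reference agonist at the receptor; some compounds past the cut are filed as inactive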
NPYLR7 agonist max-min = further read-out of NPYLR7 agonist, marked with its call; activation, %; measured here: Max-Min RFU normalised activation; some inactives read as strong as hits;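 span of the calcium signal over five minutes; 0% = vehicle and 100% = native peptide agonist; compound fluorescence can raise it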
Active calls of the source: *; & = joins results of further samples. An excerpt; the hit share may differ from the screen's.

smiles | NPYLR7 agonist | NPYLR7 agonist max-min
OCCNc1cc(N2CCC3(CCNCC3)CC2)ncn1 | 7 | 2
c1ccc(Oc2ccccc2CSc2nnc(-c3ccc4c(c3)OCO4)o2)cc1 | 3 | 2
NNc1nc(N)c2c(n1)-c1ccccc1CC21CCCCC1 | 4 | 2
CCC1=NOC(C(=O)N2CCC(Cc3nncn3-c3ccccc3)CC2)C1 (stereo not drawn) | 11 | 8
N#Cc1c(-c2cccc(Cl)c2)c(C#N)c2nc3ccccc3n2c1N | -2 | -14
COc1cc(NC(=O)c2ccc(C)s2)cc(OC)c1OC | -2 | -3
Cc1cc(C)n2c(NC3CCCCC3)c(-c3ccccc3C)nc2c1 | 18&-2 | 12&7
CCCCc1ccc(C(=O)N(CCOC)CC(=O)N(Cc2cccn2C)C2CC2)cc1 | -12 | -5
CC(=O)Oc1c(-c2ccc(N)cc2)c(-c2cccc(F)c2)nn1-c1ccc(C)cc1 | 40 | 39
CCSc1ncccc1C(=O)N1CCN(c2ccc(NC(=O)c3ccccc3F)cn2)CC1 | -2 | 6
CN1[C@H]2CC[C@@H]1CN(C(=O)c1ccccc1N1CCS(=O)(=O)CC1)CC2 | 5 | 4
COC(=O)C(c1ccccc1)N(C)C(=O)Cc1cccc(OC)c1 (stereo not drawn) | -1 | -2
Cn1c(=O)[nH]c(=O)c2c1n1c(-c3ccc(Br)cc3)nnc1n2C | 6 | 1
Cc1ccc(OCc2ccc(-c3nc(C#N)c(N4CCCCC4)o3)o2)cc1 | 0 | 13
N#Cc1ccc(NC(=O)C2CSCN2)cc1 (stereo not drawn) | 20 | 13
Cc1cc(C)n(/N=C\c2ccc(-c3ccc(Cl)cc3)o2)c(=O)c1C#N | 4 | 4
CCOC1=NN(c2ccc([N+](=O)[O-])cc2)C(=O)/C1=C\c1ccc(C)cc1 | 2 | 9
Nc1c(C(=O)NC[C@H]2CCCC[C@H]2O)cnn1-c1ccc(F)cc1F | 4 | 4
O=C(C1COC2(CCCCC2)N1C(=O)c1cccc(F)c1)N1CCCC1 (stereo not drawn) | 23 | 31
Cc1ccc(-n2c(C)c3c(c2C)P(=O)(Nc2ccc([N+](=O)[O-])cc2)N(c2ccccc2)N=C3)cc1 (stereo not drawn) | 17 | 10
COc1cc(-c2nc3ccc(Br)cn3c2NC2CCCCC2)ccc1OC(=O)c1ccc(-c2ccccc2)cc1 | 9 | 15
CN(CCC1CCCCO1)c1nncc(-c2cccc(F)c2)n1 (stereo not drawn) | 9 | 5
c1ccc(-c2ncn(CC3OCCc4ccccc43)c2-c2ncc[nH]2)cc1 (stereo not drawn) | -3 | -4
CCCc1nc(C)cc(N2CCC(Oc3ncccn3)CC2)n1 | -5 | -9
COc1cccc2c1OCC(C(=O)NCc1cccnc1N1CCN(C)CC1)C2 (stereo not drawn) | 2 | -3
CCC(=O)N(c1cccc(OC)c1)c1nc(-c2ccccc2)c(C)s1 | -13 | -21
Cc1cc(C)c(CN(C)C(C)C(=O)N(C)C)cc1C (stereo not drawn) | -4 | -7
N#C/C(=C/c1ccc(OCCC(=O)O)cc1)c1ncc(C(F)(F)F)cc1Cl | 0 | 2
C=CCOCC(O)CN(Cc1ccc2c(c1)OCO2)Cc1ccccc1F (stereo not drawn) | 24 | 25
COc1ccc(S(=O)(=O)NCCn2cncn2)cc1OC | -1 | 12
COc1ccc(-c2ccc(SCc3ccncc3)nn2)cc1 | 11 | 2
CCOc1cc(F)ccc1NC(=O)NC1CCC(=O)NC1 (stereo not drawn) | -1 | -1
Cc1sc2nc(NC(=O)c3ccc([N+](=O)[O-])cc3)sc(=O)c2c1C | -12 | -14
Fc1ccc(COc2cccc(CNc3nn[nH]n3)c2)cc1 | -8 | -12
CCc1c(C)nn(CCNC(=O)c2csc(C)n2)c1C | 6 | 3
CC(C)c1ccc(NC2CCCN(C(=O)CCc3nc4ccccc4[nH]3)C2)cc1 (stereo not drawn) | 0 | -4
O=C(NNC(=O)C1CC1)Nc1ccc(Cl)cc1 | 2 | 2
COc1ccc(OC(=O)c2ccccc2[N+](=O)[O-])c(C(C)=O)c1 | 6 | 4
CCOC(=O)N1CCN(CC(=O)N2N=C(c3cccc(F)c3)CC2c2ccc3c(c2)OCO3)CC1 (stereo not drawn) | 2 | -2
COC(=O)C1=C(C)N(C)C(=O)NC1c1ccccc1OCc1ccccc1 (stereo not drawn) | -7 | -19
CCc1nnc2n1N(C(C)=O)C(c1ccc(C)c(C)c1)=C(C(C)=O)S2 | 3 | -1
COCC(=O)N1CCN(C(C(=O)Nc2ccccc2)C2CCCC2)CC1 (stereo not drawn) | -8 | -12
Cc1sc(C(=O)NCC2COC(C)(C)O2)c(-n2c(C)ccc2C)c1C (stereo not drawn) | 11 | 3
Cc1cc(C)c2oc(-c3ccc(NC(=O)c4cccc(Br)c4)cc3)nc2c1 | -5 | -16
C=CCOc1c(Cl)cc(C(=O)NCc2cnc(C)cn2)cc1Cl | 3 | -3
Cc1ncc(CN(C)C(=O)c2cnc(-c3cccs3)s2)s1 | 8 | 8
Cc1cnc(NC(=O)CCc2c(C)noc2C)s1 | 4 | 5
CN(C)CCN(C(=O)c1ccc(Cl)s1)c1nc2cc3c(cc2s1)OCCO3 | -4 | -7
O=C(NCCCn1cccn1)Nc1ccc(Cl)c(C(F)(F)F)c1 | 0 | -6
CC(=O)Nc1ccc(C2=NN(C)C(=NCc3ccccc3)SC2)cc1 | -1 | -2
O=C(Nc1cnc2n1CCCC2)c1ccc(-c2cn(-c3ccccc3)cn2)cc1 | 9 | 5
COc1cccc(Cc2nsc(N3CCN(C(=O)c4ccc(C)c([N+](=O)[O-])c4)CC3)n2)c1 | 26 | 26
COc1ccc(N(CCC(N)=O)C(=O)c2ccc(Br)cc2)cc1 | -3 | -4
CCOc1ccccc1N1C(=O)CSC1c1cccc(NC(=O)CCl)c1 (stereo not drawn) | -4 | -3
CCOC(=O)CN(CC(N)=O)Cc1ccc(C)cc1 | -7 | -7
O=C(NCc1ccncc1)c1coc(CN(Cc2ccc(C(F)(F)F)cc2)Cc2ccc3c(c2)OCO3)n1 | 21 | 31
CN(CCc1ccccc1)C1CCCNC1 (stereo not drawn) | 8 | 6
COCCCN(C)c1cc(C(F)(F)F)nc(-c2cccnc2)n1 | 19 | 12
CCCCN(C(=O)Nc1ccccc1Br)C(CC)c1nc2ccccc2c(=O)n1-c1ccccc1OC (stereo not drawn) | 20 | 23
C=CCN1C[C@@H]2C[C@@H](C(=O)OCC)N(C(=O)OCC)c3cccc(c32)C1=O | -3 | -2

Continued.
smiles | NPYLR7 agonist | NPYLR7 agonist max-min
CCc1nc2n(n1)C(=O)C(C(c1cccc(Cl)c1)N1CCN(CCO)CC1)S2 (stereo not drawn) | -5 | -13
COc1cc(CNc2ccc3ncc(-c4cccc5cccnc45)n3n2)cc(OC)c1OC | 4 | 0
CCOC(=O)c1c(NC(=O)c2ccccc2F)sc(C(=O)Nc2ccccc2C)c1C | -6 | 0
COc1ccc2oc(=Nc3cccc(C)c3)c(-c3nc4ccccc4[nH]3)cc2c1 | 2 | 10
CCN(CC)C(=O)Oc1ccc2c(ccn2Cc2ccccc2F)c1NC(=O)c1c(C(F)(F)F)ccc(Cl)c1F | -5 | -17
Cc1ccc(C)c(-c2csc(NC(=O)CN3CCSC3=O)n2)c1 | 6 | 28
CC1CCCCC1NC(=O)CS(=O)(=O)c1ccc2ccccc2n1 (stereo not drawn) | 4&0 | 3&1
Cc1c(C(=O)Nc2c(N)nc(SCc3ccc(Cl)cc3Cl)[nH]c2=O)cccc1[N+](=O)[O-] | -2 | -2
CCCNC(=O)Cn1nc2c(c1NC(=O)C(C)(C)Oc1ccc(Cl)cc1)CSC2 | -10 | -18
CCCn1c(=O)c2ccccc2n(Cc2ccc(C(=O)NCc3ccco3)cc2)c1=O | -2 | 7
Cc1ccc(C)c(Cc2c(C)nc(C)nc2N2CCN(C(=O)/C=C/c3ccccc3)CC2)c1 | 20 | 30
CC(=O)O[C@H]1[C@@H](CN(C)C(=O)c2ccno2)[C@H]2O[C@@H]1c1ccccc12 | -1 | 7
CCC1=NOC(CNc2ncc(F)c(N3CCOCC3)n2)C1 (stereo not drawn) | -3 | -6
COc1ccc(N(C)S(=O)(=O)c2ccc(OC)c(N3CCN(S(=O)(=O)c4cccc(F)c4)CC3)c2)cc1 | 5 | -2
COc1ccc(OC)c(NC(=O)CC(=O)NCC2CCCO2)c1 (stereo not drawn) | -2 | -6
COc1ccc(C(=O)Cn2cnc3c(nnn3-c3cc(C)cc(C)c3)c2=O)cc1 | 1 | -4
COCCOc1nc(-c2ccc(Cl)c(Cl)c2)n(-c2ccc(NCC(O)COc3ccccc3)cc2)n1 (stereo not drawn) | -1 | 6
N#CC1=c2/c(=C/c3ccsc3)c(N)c(C#N)n2C(=O)C(c2ccsc2)S1 (stereo not drawn) | 2 | 22
O=S1(=O)N=C(N/N=C\c2ccc(F)cc2)c2ccccc21 | 32 | 21
N#Cc1ccccc1S(=O)(=O)N1CCC(C(=O)NCCc2cccs2)CC1 | -3 | -7
Cc1csc(C(NC(=O)NC2CC(=O)N(C3CC3C)C2)C2CC2)n1 (stereo not drawn) | -3 | 6
c1ccc(-c2ncn(C[C@@H]3CCCO3)c2-c2cccc(Cn3cccn3)c2)cc1 | 5 | -5
CCc1nc2ccc(C(=O)NCCc3ccccn3)cn2c1N(CC)C(=O)NCCc1ccccc1 | -11 | -13
O=C(CSc1ccc(NC(=O)c2cccc(F)c2)nn1)Nc1ccccc1F | 0 | 0
Cc1c(CN2CCC(CCC(=O)N3CCOCC3)CC2)[nH]c2c(C)cccc12 | 6 | 3
COc1c(C)cc(-c2ccc(C(=O)NCCCc3ccccn3)cn2)cc1C | -3 | -6
CCCNC(=O)C1(C)CCCN(CC(=O)c2ccc(N(CC)CC)cc2)C1 (stereo not drawn) | 9 | 3
CC(c1ccccc1)N(CC1CCC1)C(=O)CCc1cnn(C)c1 (stereo not drawn) | 0 | -2
CCCc1c(C(=O)N(Cc2nccn2C)C2CC2)[nH]c(C)c1C(=O)OC | -8 | -10
O=C1CN(C(=O)Cc2ccccc2)CC(O)CN1CCCc1ccccc1 (stereo not drawn) | 2 | 11

Single records, as listed above.
CCc1nc2ccc(C(=O)NCCc3ccccn3)cn2c1N(CC)C(=O)NCCc1ccccc1 reads NPYLR7 agonist = -11; NPYLR7 agonist max-min = -13
O=C(CSc1ccc(NC(=O)c2cccc(F)c2)nn1)Nc1ccccc1F reads NPYLR7 agonist = 0; NPYLR7 agonist max-min = 0
COc1ccc2oc(=Nc3cccc(C)c3)c(-c3nc4ccccc4[nH]3)cc2c1 reads NPYLR7 agonist = 2; NPYLR7 agonist max-min = 10

Further records:
smiles | NPYLR7 agonist | NPYLR7 agonist max-min
Cc1ccc(OCc2nc(C(=O)NCc3ccco3)cs2)c(C)c1 | 19 | 20
Nc1nc(CNC(=O)C2CCCN(C3CCN(C(=O)C4CC4)CC3)C2)cs1 (stereo not drawn) | 8 | 1
CCCC(C)n1c(O)cc(=O)[nH]c1=S (stereo not drawn) | -7 | -8
Cc1c(C(=O)NNC(=O)c2ccc3c(c2)OCO3)oc2ccc(F)cc12 | 7 | 0
CNc1nc2cnc(Nc3ccc(OC)cc3)cc2n1-c1cccc(F)c1 | 12 | 1
Cc1ncsc1CCN(C)C1CCN(Cc2ccco2)CC1 | 2 | 0
CCCCNC(=O)Cc1csc(NC(=O)c2ccco2)n1 | 6 | 6
O=C(NCCN1CCCCC1)C(C1CCCC1)N1CCN(C(=O)C2CC2)CC1 (stereo not drawn) | -6 | 2
CCN(NC(=O)c1ccc(C)c(OC)c1)c1ccc(C)cc1 | 6 | 2
O=C(O)CCCN1C(=O)C(=C2C(=O)N(CC(=O)O)c3ccc(Br)cc32)SC1=S | 3 | -1
CC1CC(Sc2nc3cc(S(=O)(=O)N(C)C)ccc3o2)C(=O)O1 (stereo not drawn) | -1 | -1
O=C(Cc1ccc2ccccc2c1)NCC1COc2ccccc2O1 (stereo not drawn) | -4 | -13
CC(Sc1nnc(-c2ccccc2F)o1)C(=O)N1CCc2ccccc21 (stereo not drawn) | 1 | -2
COc1ccc(-c2cnc3ncnn3c2N2CCN(S(=O)(=O)c3ccc([N+](=O)[O-])cc3)CC2)cc1 | 1 | -4
COc1cc(C)ccc1OCC(=O)NCCOc1ccc2nnc(-c3ccccc3)n2n1 | -2 | -2
CCCOc1c(Br)cc(C(=O)N2CCN(C(=O)C3CC3)CC2)cc1OC | 4 | 3
CC(C)(C)c1ccc(S(=O)(=O)N2CCC3(CC2)SCCN3C(=O)c2ccc(Br)cc2)cc1 | 11 | 17
CC(=O)NC(N(C)S(=O)(=O)c1ccc(C)cc1)C(Cl)(Cl)Cl (stereo not drawn) | -10 | -20
S=c1[nH]nc(-c2ccccc2)o1 | 5 | 6
OCCCN1CCN(c2nccc(C3CCCC3)n2)CC1 | 9 | 5
CCCCCc1ccc(S(=O)(=O)N2CCC(c3c[nH]c4ccc(C)cc34)CC2)cc1 | 30 | 15
CC(CCC(=O)O)[C@H]1CCC2C3CC[C@@H]4C[C@H](O)CC[C@]4(C)C3C=C[C@@]21C (stereo partly drawn) | -6 | -15
N#CC(=Cc1ccc(-c2nc3ccccc3s2)o1)c1[nH]nc(N)c1C#N | 13 | 1
O=C(CNC(=O)c1ccc2c(c1)OCCO2)N=Nc1c(O)n(CCc2ccccc2)c2ccccc12 | 5 | -6

Looked up one by one from the list above (3):
smiles | NPYLR7 agonist | NPYLR7 agonist max-min
S=c1[nH]nc(-c2ccccc2)o1 | 5 | 6
COc1ccc(-c2cnc3ncnn3c2N2CCN(S(=O)(=O)c3ccc([N+](=O)[O-])cc3)CC2)cc1 | 1 | -4
O=C(O)CCCN1C(=O)C(=C2C(=O)N(CC(=O)O)c3ccc(Br)cc32)SC1=S | 3 | -1
